E coli growth – E. coli growth inhibition; 0.21% of 330,000 active; Escherichia coli growth, OD600, 23 h; active compounds read low; AID 1053175; OD600 absorbance (test concentration not listed);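 active means OD600 absorbance below the run mean of sample wells minus 3.6 SD, in any replicate, cut at about 0.56 in these data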;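 further: stock transfer was 300 nL into about 60 µL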
Ecoli rRNA inh – selective bacterial rRNA inhibition in E. coli | E. coli WT GFP vs humanized-ribosome RFP mutants, fluorescence, 24 h; active compounds read low; DMSO median 0, no signal -100 | GFP signal change (wild-type ribosome), % (no concentration beside the values) | 1.6% of 350,000 active | AID 720706;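 active means significant combined selectivity score with lowered wild-type GFP, culture density cut under 30%, mutant RFP and density less affected; inactive means any of these conditions unmet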; further: one replicate is shown; some compounds called inactive have numbers as strong as hits
ALR H2O2 inh – blocks human ALR sulfhydryl oxidase activity; inhibition, % (test concentration not listed); AID 485317; 3.8% of 290,000 active; purified ALR, DTT oxidation, H2O2 HRP-luminol luminescence;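 active means mean and each replicate at 75% or more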;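 further: stock transfer was 7.5 nL into about 7.5 µL; 0% = neutral wells and 100% = wells with inactivated enzyme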
Target sequence (P55789 whole entry, looked up): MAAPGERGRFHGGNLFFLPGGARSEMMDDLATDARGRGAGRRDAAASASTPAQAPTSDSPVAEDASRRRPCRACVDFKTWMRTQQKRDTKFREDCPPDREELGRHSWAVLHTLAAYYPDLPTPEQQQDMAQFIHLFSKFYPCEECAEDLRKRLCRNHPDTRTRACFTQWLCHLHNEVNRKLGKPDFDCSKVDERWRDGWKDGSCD
Beta2AR agonist – human beta-2 adrenergic receptor agonism by FAP | P07550 | Am2.2-beta2AR cells, FAP receptor internalization, flow cytometry; reference of the scale not given here | response, % (concentration not given with the values) | 0.43% of 340,000 active;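 active means response above a set limit, near 3 SD of response in nonfluorescent compounds, cut at about 42% in these data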;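 further: stock transfer was 100 nL into about 11 µL; a reference agonist was the positive control; negative values mostly stem from fluorescent compounds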
UCH37 inh – blocks the human deubiquitinase UCH37; Q9Y5K5; purified proteasome/UCH37, Ub-AMC cleavage fluorescence; inhibition, % (no concentration beside the values); 0.33% of 330,000 active;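 active means mean of two replicates above 20%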;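 further: 0% = compound-free wells with enzyme and 100% = wells lacking proteasome; stock transfer was 100 nL into about 20 µL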
Target sequence (Q9Y5K5 whole entry, looked up): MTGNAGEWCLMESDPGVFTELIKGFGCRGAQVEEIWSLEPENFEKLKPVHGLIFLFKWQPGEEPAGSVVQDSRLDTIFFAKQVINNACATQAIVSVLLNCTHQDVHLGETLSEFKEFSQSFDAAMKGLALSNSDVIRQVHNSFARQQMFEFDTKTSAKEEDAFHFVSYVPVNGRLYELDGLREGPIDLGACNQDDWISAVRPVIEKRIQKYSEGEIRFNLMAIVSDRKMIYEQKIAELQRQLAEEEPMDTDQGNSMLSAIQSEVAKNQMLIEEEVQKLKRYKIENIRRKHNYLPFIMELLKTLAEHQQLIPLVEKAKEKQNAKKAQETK
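Reagent: Ub-AMC substrate; assay system: Proteasome-associated human UCH37 deubiquitinase; controls: no-proteasome and no-compound wells; read-out: % inhibition of Ub-AMC cleavage fluorescence; timing: 30 min preincubation with enzyme, 25 min cleavage at room temperature; signal: AMC fluorescence from Ub-AMC cleavage, excitation 355 nm, emission 460 nm; buffer or medium: Tris-HCl pH 7.4 plus ovalbumin, ATP-MgCl2, DTT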
FGF22 binding – FGF22 (human) thermal shift binding; recombinant FGF22 thermal shift, SYPRO orange fluorescence; percent of sucrose octasulfate shift, DMSO zero; calls only at 9.99 µM; 1.5% of 340,000 active; AID 651658;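 active means melting point raised past a set limit in the mean and every replicate; three in four hits are not shown here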
Target sequence (Q9HCT0 whole entry, looked up): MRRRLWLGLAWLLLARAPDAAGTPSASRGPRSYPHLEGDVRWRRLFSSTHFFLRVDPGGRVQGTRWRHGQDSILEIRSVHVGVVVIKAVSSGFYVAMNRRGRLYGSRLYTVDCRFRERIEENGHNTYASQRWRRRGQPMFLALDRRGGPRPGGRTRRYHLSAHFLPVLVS
HNF4A DNA FP – change in binding of human HNF4 alpha to DNA | P41235 | HNF4a-FITC DNA binding, fluorescence polarization, 1 h | activity change, % at 10 µM | 0.3% of 360,000 active; in the data active means activity change above about 30%, passing the limit was not always enough;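 further: controls were the assay level and a saturating level of protein; the project sought stronger binding though the title names inhibitors; some compounds called inactive have numbers as strong as hits; positive values seem to mean higher polarization but the record does not say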
Ecoli rRNA inh OD600 – second read-out of Ecoli rRNA inh, no call of its own (marks repeat the call); OD600 change, %; measured here: OD600 growth;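 optical density of the mix in the first replicate; 0 = DMSO median and -100 = no signal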
Ecoli rRNA inh RFP – second read-out of Ecoli rRNA inh, no call of its own (marks repeat the call); RFP signal change, %; measured here: RFP humanized mutant strains;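 first replicate; 0 = DMSO median and -100 = no signal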
* marks the source's active call; other numbers are inactive results; i = inactive; x = not tested or not shown; & = joins results of further samples. Some of the compounds tested; count on the stated rates, not on these rows.

cpd	Compound	UCH37 inh	FGF22 binding	Ecoli rRNA inh	Ecoli rRNA inh RFP	HNF4A DNA FP	Beta2AR agonist	ALR H2O2 inh	Ecoli rRNA inh OD600	E coli growth
1	O=C(OCc1nnc(-c2ccccc2)o1)C1CC(=O)N(c2ccccc2)C1 (configuration not stated)	3.9	i	0	-1.0	0.3	8	0	-3	0.73
2	OC(COc1c(Cl)cc(Cl)cc1Cl)CN1CCCCC1 (configuration not stated)	0.4	x	x	x	-0.6	-9	2	x	0.64
3	COc1ccc(C(=O)[C@H]2[C@H]3C(=O)N(c4ccc(OC(C)=O)cc4)C(=O)[C@H]3C3C=CC=NN32)cc1 (some centres not stated)	3.8	i	-4	2.3	4.3	14	-4	5	0.67
4	Cc1cc(C(=O)Nc2cccc3cccnc23)ccc1[N+](=O)[O-]	2.1	i	2	-1.9	2.5	-4	-7	10	0.71
5	CCC(=O)N1c2ccc(S(=O)(=O)N3CCN(CC)CC3)cc2CC1C (configuration not stated)	0.2	i	13	2.3	-3.5	4	3	24	0.69
6	CN(c1ccccc1C(=O)Nc1cccc(C(F)(F)F)c1)S(C)(=O)=O	1.8	x	x	x	-0.2	2	4	x	0.75
7	CN1CCC(OC(=O)COc2ccc(F)cc2)CC1	-0.5	i	16	0.0	0.9	-5	-5	5	0.74
8	Cc1ccccc1NC(=O)c1c(Cl)nc(C)c(Cl)c1C	0.0	x	x	x	5.0	0	7	x	0.68
9	COc1ccc(C2CC(=O)CCN2S(=O)(=O)c2ccc(C)cc2)cc1 (configuration not stated)	1.6	i	-22*	1.8*	3.0	9	x	-12*	0.69
10	CNC(=S)Nc1ccc([N+](=O)[O-])c(C)c1	7.2	i	-5	-1.5	-0.5	-1	x	-5	0.66
11	Cc1nnc(SCC(=O)Nc2ccccc2F)n(N)c1=O	2.3	i	8	-0.4	1.3	3	-1	13	0.74
12	Cc1ccc(N(C(=O)C2CCCC2)C2C=CS(=O)(=O)C2)cc1C (configuration not stated)	0.4	x	1	2.3	3.0	-7	-11	5	0.68
13	Cc1ccc2[nH]c3nc(NN)nnc3c2c1	7.1	i	-12	-3.0	2.2	5	36	2	0.66
14	CC1(C(=O)NCc2ccco2)Cc2c(-c3cccc(C(F)(F)F)c3)ccnc2O1 (configuration not stated)	x	i	-37	-12	-3.4	x	x	-63	x
15	O=C(O)c1ccccc1NS(=O)(=O)c1ccc(NN=Cc2cccc(Cl)c2)c([N+](=O)[O-])c1	16	i	-9	-6.7	-4.9	-4	x	7	0.64
16	Cn1c2ccccc2c2nnc(SCC(=O)Nc3cccc(C(=O)O)c3)nc21	8.5	i	8	-7.8	-2.0	-3	0	11	0.65
17	COc1cccc(CNC(=O)C(C(=O)NCc2cccc(OC)c2)c2ncc(C(F)(F)F)cc2Cl)c1	-1.3	i	13	0.2	-1.4	1	-2	16	0.72
18	O=C(CNC(=O)N1CC(=O)Nc2ccccc21)NCCc1c[nH]c2ccccc12	-0.2	i	x	x	1.5	4	11	x	0.7
19	Cc1nn(Cc2noc(C(=O)NCc3ccc4c(c3)OCO4)n2)c(C)c1Br	4.2	i	-8	7.4	2.7	6	0	-20	0.65
20	CC(=O)Nc1ccc(NC(=O)c2cc(=O)c3cc(C)c(C)cc3o2)cc1	4.6	i	12	6.1	2.2	2	-2	20	0.71
21	CSc1nc(O)c(C(c2ccc(OC(C)C)cc2)c2c(O)nc(SC)[nH]c2=O)c(=O)[nH]1	0.9	i	4	0.3	0.8	-1	23	0	0.71
22	Cc1cnc(CNC(=O)c2ccc3oc(Cc4ccc(Cl)cc4)nc3c2)cn1	0.0	i	-10	1.3	-0.1	-15	-17	-8	0.65
23	C=CCn1c(SCC(=O)c2cccs2)nnc1-c1cccc(OC)c1	3.5	x	x	x	0.2	-9	93*	x	0.69
24	CC(C)(C)OC(=O)C[C@@H]1C/C=C\C[C@@H](CC(=O)N(CCO)Cc2ccccc2)C(=O)N[C@@H](c2ccccc2)COC1=O	7.2	i	-11	-8.8	-0.3	5	3	-14	x
25	C=CCC(=O)N1CCCC(C(=O)c2ccc(Cl)cc2)C1 (configuration not stated)	1.6	i	3	0.9	2.3	-2	x	7	0.68
26	CC(=O)n1nc(-c2cccnc2)nc1NCc1cccs1	0.6	i	9	4.1	-2.3	-11	23	9	0.7
27	Cc1nn(Cc2c(Cl)cccc2Cl)c(C)c1NC(=O)c1cnn2c(C(F)F)cc(-c3ccccc3)nc12	1.1	x	x	x	-2.9	1	-1	x	0.77
28	C=CCn1c(CCC(O)COCCCCC)n[nH]c1=S (configuration not stated)	2.2	i	8	-1.0	0.6	4	96*	9	0.66
29	CC(=O)Nc1cccc(NC(=O)COc2ccc3c(c2)OCO3)c1	3.4	i	-3	0.3	-0.4	3	7	-2	0.61
30	CCOC(=O)C1CCN(C(=O)c2ccc3c(=O)n4nc(Nc5ccccc5CC)sc4nc3c2)CC1	x	i	-9	0.3	1.0	x	x	-21	x
31	O=C(COC(=O)c1ccc(S(=O)(=O)N2CCCC2)cc1)NCc1ccc(F)cc1	0.2	x	x	x	3.6	-2	-3	x	0.71
32	Oc1ccc(-c2n[nH]c(C(F)(F)F)c2-c2ccccc2)c(O)c1	1.0	i	-51	-11	1.0	7	97*	-83	0.64
33	O=C(Cc1c(F)cccc1Cl)NC1=NCCS1	2.7	i	3	-0.5	1.0	0	0	2	0.72
34	Cc1nn(C(=O)c2nn(C)cc2[N+](=O)[O-])c(C)c1Br	-0.7	i	x	x	1.0	0	5	x	0.66
35	CCOC(=O)[C@H]1[C@H]2COc3ccc(Br)cc3[C@@H]2N2C(=O)CN(C)C(=O)[C@@]12C	x	i	7	-3.9	1.9	1	x	6	x
36	COc1ccccc1CN1CCNC(=O)C1CC(=O)NCCCN1CCCC1=O (configuration not stated)	-2.0	i	5	-3.8	2.9	4	-33	7	0.64
37	COc1ccc(/C=C(/NC(=O)c2ccc(Br)cc2)C(=O)Nc2cccc(C(=O)O)c2)cc1	x	i	-5	-5.4	-1.4	x	x	-15	x
38	CC(C)Sc1nc2c(c(=O)n1C)SC(C)C2 (configuration not stated)	6.9	i	x	x	6.7	-2	-6	x	0.71
39	CCCCC(CC)CNC(=O)Cn1c(=S)[nH]c2ncccc2c1=O (configuration not stated)	5.4	x	x	x	x	x	-7	x	0.67
40	Cc1cc(NC(=O)CN2C(=O)NC3(CCCCC3)C2=O)no1	0.3	i	4	-2.5	-3.9	1	x	8	0.7
41	CC(C)NC(=O)Nc1ccc2c(c1)C(=O)N([C@@H](C)CO)C[C@@H](C)[C@@H](CN(C)S(=O)(=O)c1ccc(F)cc1)O2	0.2	i	-2&0	0.2&-8.8	-0.7	5	-2	-5&-5	0.73
42	OC[C@@H]1CN(Cc2ccc(F)cc2)C[C@H](n2cnc3c(NCc4ccncc4)ncnc32)O1	x	i	7	-2.3	-4.3	x	x	11	x
43	CSc1ccc(/C=C/C(=O)OCC(=O)N2CCN(c3ccccc3)CC2)cc1	x	i	0	-1.5	-2.2	1	x	7	x
44	CCC(C)c1ccc(OCC(=O)Nc2cccc(C(=O)Nc3ccc(C(=O)O)cc3)c2)cc1 (configuration not stated)	2.5	i	-6	-1.5	-3.6	14	x	3	0.73
45	CCN(C[C@H]1N[C@@](Cc2ccccc2)(C(=O)OC)[C@H]2C(=O)N(C)C(=O)[C@@H]12)S(=O)(=O)c1ccc(C(C)(C)C)cc1	3.4	i	-5	-0.5	2.6	-4	x	-7	0.7
46	O=C(Nc1cccc(F)c1)C1CCCN(S(=O)(=O)c2cnc[nH]2)C1 (configuration not stated)	1.1	i	-1	-3.0	-3.7	-2	2	3	0.66
47	O=C(CN1C2CCCC1CC(NC(=O)C1CCCCC1)C2)Nc1ccccc1C(F)(F)F (configuration not stated)	6.1	i	-26	-3.7	-3.1	4	1	-37	0.66
48	CCCCN(C(=O)c1ccc2c(c1)S(=O)(=O)N=C1CCCCCN12)c1c(N)n(CC(C)C)c(=O)[nH]c1=O	0.1	i	13	-0.4	-1.0	-1	x	9	0.67
49	CC(C)C[C@@H](CN1CCC[C@H]1CN1C(=O)C(=O)NC[C@@H]1Cc1ccc(O)cc1)N1C[C@H](Cc2ccccc2)N(CC2CCCCC2)C(=O)C1=O	x	i	6	6.3	-0.9	x	x	3	x
50	COc1ccc(NC(=O)CSc2nc(C)c3c(c2C#N)CCCC3)cc1	4.9	x	x	x	-0.5	-26	-25	x	0.7
51	COC(=O)c1ccc(C2C(C(=O)c3ccc(C)o3)=C(O)C(=O)N2c2cc(C)on2)cc1 (configuration not stated)	3.6	i	-3	4.1	1.1	12	91*	3	0.67
52	CCC(C(=O)OCC(=O)NC(=O)c1ccccc1OC)c1ccccc1 (configuration not stated)	6.9	x	1	0.9	-2.0	-4	-4	5	0.67
53	Cn1c(C(=O)OC(C(=O)NC2CCCCC2)c2cccnc2)cc2sccc21 (configuration not stated)	5.5	x	x	x	2.9	-16	-9	x	0.75

From no. 41 to 46, copied from above:
cpd	Compound	UCH37 inh	FGF22 binding	Ecoli rRNA inh	Ecoli rRNA inh RFP	HNF4A DNA FP	Beta2AR agonist	ALR H2O2 inh	Ecoli rRNA inh OD600	E coli growth
41	CC(C)NC(=O)Nc1ccc2c(c1)C(=O)N([C@@H](C)CO)C[C@@H](C)[C@@H](CN(C)S(=O)(=O)c1ccc(F)cc1)O2	0.2	i	-2&0	0.2&-8.8	-0.7	5	-2	-5&-5	0.73
42	OC[C@@H]1CN(Cc2ccc(F)cc2)C[C@H](n2cnc3c(NCc4ccncc4)ncnc32)O1	x	i	7	-2.3	-4.3	x	x	11	x
43	CSc1ccc(/C=C/C(=O)OCC(=O)N2CCN(c3ccccc3)CC2)cc1	x	i	0	-1.5	-2.2	1	x	7	x
44	CCC(C)c1ccc(OCC(=O)Nc2cccc(C(=O)Nc3ccc(C(=O)O)cc3)c2)cc1 (configuration not stated)	2.5	i	-6	-1.5	-3.6	14	x	3	0.73
45	CCN(C[C@H]1N[C@@](Cc2ccccc2)(C(=O)OC)[C@H]2C(=O)N(C)C(=O)[C@@H]12)S(=O)(=O)c1ccc(C(C)(C)C)cc1	3.4	i	-5	-0.5	2.6	-4	x	-7	0.7
46	O=C(Nc1cccc(F)c1)C1CCCN(S(=O)(=O)c2cnc[nH]2)C1 (configuration not stated)	1.1	i	-1	-3.0	-3.7	-2	2	3	0.66

Screens deposited in PubChem BioAssay by several laboratories.
